Compound activity from PubChem.
KCNQ2 enhance: KCNQ2 (rat) channel potentiation | CHO-K1 KCNQ2, FluxOR thallium flux fluorescence; active compounds read high | B-score at 10 µM | 310,000 tested, 0.54% active;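 active = fluorescence ratio B-score at least 3 SD of library B-scores, with initial fluorescence B-score within 3 SD, cut at about 5.3 in these data; same plate scores as AID 2156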;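 note: B-score of peak minus minimum over baseline fluorescence ratio after K+ and Tl+ stimulus; positive B-score means potentiation of KCNQ2 with more thallium influx and brighter signal; only the inactives scoring about 0 or higher are listed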
Target sequence (O88943 whole entry, looked up): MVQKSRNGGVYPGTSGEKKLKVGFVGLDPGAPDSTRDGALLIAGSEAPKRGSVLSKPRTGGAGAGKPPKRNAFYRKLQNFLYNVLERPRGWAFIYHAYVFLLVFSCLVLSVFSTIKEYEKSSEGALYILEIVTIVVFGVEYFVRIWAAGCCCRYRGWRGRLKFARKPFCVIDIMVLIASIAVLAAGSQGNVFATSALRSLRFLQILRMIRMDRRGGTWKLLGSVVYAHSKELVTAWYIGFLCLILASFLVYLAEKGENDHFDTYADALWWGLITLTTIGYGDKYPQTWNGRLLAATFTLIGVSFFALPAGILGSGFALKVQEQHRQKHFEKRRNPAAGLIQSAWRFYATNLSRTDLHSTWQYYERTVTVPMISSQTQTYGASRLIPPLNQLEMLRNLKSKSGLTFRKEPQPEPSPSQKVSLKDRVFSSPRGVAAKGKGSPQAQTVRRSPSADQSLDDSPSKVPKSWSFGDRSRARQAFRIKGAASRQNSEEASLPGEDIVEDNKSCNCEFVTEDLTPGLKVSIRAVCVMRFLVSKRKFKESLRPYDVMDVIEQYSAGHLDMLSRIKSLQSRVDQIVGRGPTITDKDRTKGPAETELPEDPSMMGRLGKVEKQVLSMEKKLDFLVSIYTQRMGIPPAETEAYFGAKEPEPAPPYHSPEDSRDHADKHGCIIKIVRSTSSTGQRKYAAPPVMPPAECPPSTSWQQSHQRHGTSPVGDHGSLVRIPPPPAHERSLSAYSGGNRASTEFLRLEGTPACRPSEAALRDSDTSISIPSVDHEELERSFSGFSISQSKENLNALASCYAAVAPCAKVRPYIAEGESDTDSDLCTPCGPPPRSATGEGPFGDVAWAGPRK
KCNQ2 enhance baseline: recorded beside KCNQ2 enhance, whose call it bears; B-score; compound at 10 µM; measured here: initial fluorescence intensity artifact check;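 brightness before thallium and not channel activity; 0 = typical well and far values either way flag optical interference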
* = called active by the depositor.

SMILES	KCNQ2 enhance	KCNQ2 enhance baseline
CN(Cc1cn(Cc2ccccc2)nc1-c1ccc2c(c1)OCO2)Cc1nccn1C	0.55	2.18
CCOC(=O)CNC(=O)c1cn(CC(C)C)c(=O)c2cc(OC)c(OC)cc12	0.29	1.06
Cc1cc(C)n(-c2nc3c(c(=O)n(C)c(=O)n3C)n2CCO)n1	1.08	-1.77
c1ccc2c(c1)c1c3n2CCNC3CCC1 (centres undefined)	0.93	1.55
C(=N\c1nccs1)/c1cccnc1	0.44	-1.44
COc1ccc(C2CC(=O)C(C=NCCO)=C(O)C2)cc1OC (centres undefined)	0.02	-1.5
Cc1ccc(NS(=O)(=O)c2ccc(C(=O)N3CCCN(C)CC3)cc2)cc1	1.36	-0.97
Cn1cc([N+](=O)[O-])c(C(=O)NCc2cc3ccccc3[nH]2)n1	2.22	-1.73
COc1ccc(/C=C\C(=O)Oc2cccc(/C=N/NC(=O)Cc3ccc(OC)c(OC)c3)c2)cc1	0.32	0.33
CCC1=C2CC[C@H]3C(=O)N(C)C(=O)[C@H]3[C@H]2[C@@]2(Cc3ccccc3)C(=NCC(=O)OC)OC(=O)N2C1=O	1.83	0.51
COCCN(C(=O)COC(=O)c1ccccc1NCc1ccco1)c1c(N)n(Cc2ccccc2)c(=O)[nH]c1=O	1.46	-2.45
COc1ccc2c(C)cc(Sc3nnnn3-c3ccccc3)nc2c1	1.36	-0.82
COCCCNC(=S)NNC(=S)Nc1cccc(Cl)c1	0.12	-0.04
COC(=O)c1sccc1NC(=O)CC1C(=O)NCCN1C(=O)c1ccc(F)cc1 (centres undefined)	0.88	0.17
Cc1nn(C)c(C(=O)N/N=C/c2cc3c(cc2Br)OCO3)c1Br	0.83	-1.37
COc1ccc(NC(=O)CN2CCC(NC(=O)C3CCCCC3)CC2)cc1	0.23	-0.88
COc1ccc(C(=O)COC(=O)c2cc(=O)[nH]c3ccccc23)c(OC)c1	1.26	-0.04
CC1CCN(C(=O)COC(=O)Cc2c[nH]c3ccccc23)CC1	2.06	-1.05
COc1ccc(OC)c(NC(=O)c2cccnc2Sc2cc(C)ccc2C)c1	1.83	-0.14
Clc1nc(-c2ccccc2)c2ccccc2n1	0.04	0.33
CCOc1ccccc1NC(=O)CSc1nnc2c(CC)c(C)nc(N)n12	0.08	-0.92
Cc1cc(C)c(C2=CSC3=NS(=O)(=O)CCN23)c(C)c1	0.11	0.79
CCS(=O)(=O)c1ccc2oc(Nc3ccccc3C)nc2c1	0.47	0.12
Cc1cc(NC(=O)CCC(=O)N(Cc2ccco2)C2(C(=O)NC3CCCCC3)CCN(C)CC2)no1	0.29	0.48
O=C(COC(=O)c1ccc2c(c1)OCO2)NCc1ccc(Cl)cc1	0.82	-1.49
Next records
SMILES	KCNQ2 enhance	KCNQ2 enhance baseline
COc1cc([C@H]2c3[nH]c4ccccc4c3C[C@H]3C(=O)N4[C@@H](c5cc(OC)c(OC)c(OC)c5)c5[nH]c6ccccc6c5C[C@H]4C(=O)N23)cc(OC)c1OC	1.09	0.01
COc1cccc(CC2(CO)CCN(CC3=CC[C@H]4C[C@@H]3C4(C)C)CC2)c1	1	0.45
CC(=O)c1ccc(NC(=O)CCNC(=O)c2ccccc2Cl)cc1	1.11	1.56
CCn1c2ccccc2c2nnc(SCC(=O)N3CC(C)OC(C)C3)nc21 (centres undefined)	0.96	1.04
CC(=O)n1nc(-c2ccco2)nc1N	0.5	2.45
O=C(NCCO)/C(=C/c1cccc([N+](=O)[O-])c1)NC(=O)c1ccco1	3.63	-0.06
Cc1ccc(CN2CCN(Cc3cccn3-c3ccc(Cl)cn3)CC2CCO)o1 (centres undefined)	0.69	-1.38
Cc1c(Cl)cccc1NC(=S)NCc1ccc(Cl)cc1	0.01	0.01
CCOc1ccc(-c2ccc(SCC(=O)Nc3nnc(CC)s3)nn2)cc1	1.31	-0.08
O=C(CNS(=O)(=O)c1cccs1)N1CCN(c2ccccn2)CC1	0.39	-1.2
COc1ccccc1C(=O)Nc1ccnn1C1CCN(Cc2ncc[nH]2)CC1	1.2	0.9
CCOC(=O)CN1C(=O)/C(=C/c2ccc(Cl)cc2)Oc2ccccc21	0.8	-0.15
COc1ccc(OC)c(Nc2nc(NCc3ccco3)nc(N)c2[N+](=O)[O-])c1	0.75	1
CC(C)CCNC(=O)c1cc2c(s1)-c1ccccc1S(=O)(=O)C2	0.85	-2.57
O=C(C1CCCO1)N1CCN(c2ccccn2)CC1 (centres undefined)	2.13	0.28
COc1ccc(Br)cc1S(=O)(=O)N1CCCC1	0.09	-0.83
CCOC(=O)C1=C(N)OC2=C(C(=O)CC(C)(C)C2)C1c1cccnc1 (centres undefined)	0.48	-0.01
Cn1c(=O)c(-c2ccccc2N)nc2ccccc21	0.51	-0.42
CCNc1ccc(S(N)(=O)=O)cc1[N+](=O)[O-]	0.08	-1.57
CCOc1ccc(CCNC(=O)Cn2nc(C)c3c(C)n(-c4ccccc4)nc3c2=O)cc1OCC	1.16	1
O=C(Nc1ccccc1Cl)Nc1cccc2cccnc12	0.03	-0.87
Cc1cc(OCC(O)CN2CCOCC2)cc(C)c1Cl (centres undefined)	0.36	-0.86
Cc1nn(CCCC(=O)NCc2ccc(F)cc2)c(C)c1[N+](=O)[O-]	1.5	0.3
CC(CC(=O)N1CCN(S(=O)(=O)c2ccccc2)CC1)n1cncn1 (centres undefined)	1.32	-0.03
CCOc1ccc(Cc2nn[nH]n2)cc1	0.66	-0.69

Fetched one by one from the entries so far:
SMILES	KCNQ2 enhance	KCNQ2 enhance baseline
CCNc1ccc(S(N)(=O)=O)cc1[N+](=O)[O-]	0.08	-1.57
O=C(NCCO)/C(=C/c1cccc([N+](=O)[O-])c1)NC(=O)c1ccco1	3.63	-0.06
COc1cc([C@H]2c3[nH]c4ccccc4c3C[C@H]3C(=O)N4[C@@H](c5cc(OC)c(OC)c(OC)c5)c5[nH]c6ccccc6c5C[C@H]4C(=O)N23)cc(OC)c1OC	1.09	0.01
CCOc1ccc(-c2ccc(SCC(=O)Nc3nnc(CC)s3)nn2)cc1	1.31	-0.08
CC(=O)c1ccc(NC(=O)CCNC(=O)c2ccccc2Cl)cc1	1.11	1.56

(list continues)
SMILES	KCNQ2 enhance	KCNQ2 enhance baseline
Cc1ccc(OCc2cc(C(=O)N(C)CC3CCOCC3)no2)cc1C	0.68	0.18
CCN(CC)c1ccc(NC(=O)C2CC(=O)N(Cc3ccccc3)C2)cc1 (centres undefined)	2.82	1.15
CC(=O)c1c(C)[nH]c(C(=O)OCc2ccc(F)cc2Cl)c1C	0.54	0.05
O=C(CSc1nccn1-c1ccc(F)cc1)Nc1ccc2c(c1)OCO2	0.05	0.89
O=C(Oc1ccc2c(c1)OCO2)c1ccncc1	1.74	-0.02
O=C(c1cccs1)N1CCC(c2nc3c(nnn3Cc3c(Cl)cccc3Cl)c(=O)[nH]2)CC1	0.32	-0.87
O=C(Oc1ccc2c(c1)CCC2)N1CCOCC1	0.12	-1.74
NS(=O)(=O)c1ccc(CCNC(=O)c2cc(-c3ccccn3)nc3ccc(Br)cc23)cc1	1.86	0.61
CC(=O)NC(CCS(C)(=O)=O)C(=O)Nc1c(C)cccc1C (centres undefined)	0.44	0.58
O=C(CN1CC(=O)Oc2ccccc21)OCC(=O)c1cccc(Br)c1	1.01	-0.95
Cc1onc(-c2ccccc2Cl)c1C(=O)OCc1nnc(-c2ccccc2)o1	0.91	0.82
O=C(CSC1CC(=O)N(c2ccc(C(=O)O)cc2)C1=O)Nc1ccc(Cl)cc1 (centres undefined)	1.38	1.63
CC(C(=O)N1CCOCCOCCOCCOCCOCC1)N1C(=O)c2ccccc2C1=O (centres undefined)	0.15	2.09
COc1cccc(CNC(=O)CCC2CCCN(Cc3cc4ccccc4o3)C2)c1 (centres undefined)	1.38	0.82
Cc1ccc(OCC(=O)Oc2ccc(C(C)C)cc2)cc1	1.16	-3
COc1ccc(CCNC(=O)Cn2c(=O)cnc3ccccc32)cc1	0.19	0.62
CCC1(c2ccccc2)NC(=O)N(CC(=O)N(C)CC(=O)Nc2cccc(OC)c2)C1=O (centres undefined)	0.45	-0.03
CCOC(=O)c1c(NC(=O)CN2C(=O)NC3(CCC(C)CC3)C2=O)sc(C)c1-c1ccc(C)cc1 (centres undefined)	0.45	-0.03
C/C(=N\NC(=O)C(O)c1ccccc1)c1ccc(Br)s1 (centres undefined)	1.04	1.24
CCC(C)Sc1ccc([C@H]2N[C@@](Cc3ccccc3)(C(=O)OC)[C@H]3C(=O)N(C)C(=O)[C@@H]23)cc1 (some centres undefined)	0.49	0.12
Cc1cc(NC(=O)c2ccc([N+](=O)[O-])cc2)n(C)n1	0.51	-0.32
Cc1cc(C)cc(C(=O)Nc2nc3ccccc3[nH]2)c1	0.46	0.47
COC(=O)c1cn(Cc2cccnc2)c(=O)c2ccccc12	0.44	0.43
CC(=O)OCC#CCSc1nc2ccccc2n1C	1.43	-0.93
Cc1ccc(SCCNC(=O)c2ccc([N+](=O)[O-])c(C)c2)cc1	0.3	-1.35
Next part.
SMILES	KCNQ2 enhance	KCNQ2 enhance baseline
CN(C)/C=C(/C(=O)c1ccc(Cl)cc1)S(=O)(=O)c1ccccc1	0.34	-0.1
CC[n+]1c(-c2ccc(C)cc2)csc1Nc1c(C)n(C)n(-c2ccccc2)c1=O	0.64	-0.16
Nc1cccc2nc3ccccc3cc12	0.08	2.31
Cc1ccc(S(=O)(=O)N2CCC(=O)N(C(COCc3cccc(C)c3)C(C)C)CC2)cc1 (centres undefined)	1.18	-1.1
CCOC(=O)Cn1cc(C(=O)C(C)(C)C)c2ccccc21	0.52	-1.6
CC(C)(C)c1ccc(OCC(=O)N/N=C/c2ccsc2)cc1	0.04	-0.06
O=C(Cn1c(=O)oc2cc(S(=O)(=O)N3CCc4ccccc43)ccc21)NC1CCCC1	0.27	0.91
CCOC(=O)C1CCN(S(=O)(=O)c2c(C)n[nH]c2C)CC1	1.86	-0.01
CC(C)c1ccc(N(CC(=O)NC(C)(C)C)C(=O)CCC(=O)Nc2nccs2)cc1	0.71	0.29
O=C(NN=C1CCCC1)c1cccc(Br)c1	0.87	0.47
COC(=O)CN1C(=O)Nc2ccc(Br)cc2C1c1ccccc1Cl (centres undefined)	15.4*	-0.68*
CC(C)CC(OC(=O)c1ccco1)C(=O)NC1CCCC1 (centres undefined)	0.35	1.85
CCCCn1c(N)c(N(CC(C)C)C(=O)c2ccncc2)c(=O)[nH]c1=O	1.41	-1.86
Cc1nn(-c2ccccc2)c(C)c1/C=N/NC(=O)c1cnccn1	0.84	-0.59
CC(=O)c1c(C)[nH]c(C(=O)NCCc2ccc(Cl)cc2)c1C	0.9	0.93
CCCn1nnnc1NC(=O)c1ccc(C)cc1Cl	0.07	-3.84
ON=Cc1cccn1-c1ccccc1	0.94	-0.31
Clc1ncc(Cn2cccn2)s1	2.13	-0.04
CC(=O)NC(Cc1ccc(F)cc1)C(=O)N1CCN(C(=O)NCc2ccccc2)CC1 (centres undefined)	0.73	-0.74
Cc1cc(=O)[nH]c(Nc2ccccc2C)n1	1.34	0.01
Cc1nc(Cl)sc1C(=O)Nc1cccc2ccccc12	1.76	-0.83
CCOCCCN(C(=O)CNC(=O)c1ccco1)C(C(=O)NC1CCCC1)c1cccc(OC)c1 (centres undefined)	1.04	0.26
CC(C(=O)NC1CC(C)(C)NC(C)(C)C1)c1ccc([N+](=O)[O-])cc1 (centres undefined)	2.64	-0.02
COc1ccc(NC(=O)CC2SC(=N)N(c3ccccc3)C2=O)c(OC)c1 (centres undefined)	0.26	-0.7
Cc1ccc(OCCC(=O)OCC(=O)NCCc2ccc(Cl)cc2)cc1	0.79	0.4
Carrying on:
SMILES	KCNQ2 enhance	KCNQ2 enhance baseline
CNc1nc(N)c(C(=O)Nc2cc(C)on2)s1	0.09	-0.62
CCN(Cc1ccccc1)C(=O)COC(=O)c1cc(=O)[nH]c2ccccc12	0.33	0.62
CCCCC(=O)Nc1nnc(-c2ccc(OC)cc2)s1	0.47	-0.91
c1ccc(Oc2ncnc3sccc23)cc1	1.92	-0.23
COc1ccc(Cc2nc3ccc(S(=O)(=O)N4CCOCC4)cc3[nH]2)cc1	0.01	0.04
CCCCNc1ccc(C(CC(N)=O)NC(=O)c2ccccc2)cc1[N+](=O)[O-] (centres undefined)	1	-4.26
OC1(c2ccc(F)cc2)CCN(Cc2ccccc2)C1 (centres undefined)	1.67	-0.46
Cc1nn2c(=O)c(NC(=O)c3ccc(F)cc3)cnc2s1	0.18	1.09
COc1ccc(-c2csc(NC(=S)NC(=O)c3ccc4ccccc4c3)n2)cc1OC	4.03	-1.25
CCC(CC)c1nc2ccccc2c(=O)[nH]1	0.78	-1.07
O=C(Nc1ccccn1)c1cccs1	0.03	1.18
CC(=O)Nc1cccc(NC(=O)c2ccc(C(=O)Nc3cccc(NC(C)=O)c3)nc2)c1	0.19	-1.92
CNC(=O)CSc1nnnn1-c1cc(C)ccc1C	0.28	0.17
COc1ccc(N2CC(C(=O)N3CCN(c4ccccc4)CC3)CC2=O)cc1 (centres undefined)	1.25	0
O=C1NC2(CCCCC2)N=C1c1ccc(F)cc1	1.62	-1.32
Cc1[nH]c2c(C)cccc2c1CN1CCC(CO)(Cc2ccccc2)CC1	0.09	1.17

Entries of single compounds from above. Order of screens: KCNQ2 enhance, KCNQ2 enhance baseline
`COc1ccc(Cc2nc3ccc(S(=O)(=O)N4CCOCC4)cc3[nH]2)cc1` reads 0.01, 0.04
`COc1ccc(-c2csc(NC(=S)NC(=O)c3ccc4ccccc4c3)n2)cc1OC` reads 4.03, -1.25

Entries above with two or more sulfur atoms, in the order listed:
SMILES	KCNQ2 enhance	KCNQ2 enhance baseline
COCCCNC(=S)NNC(=S)Nc1cccc(Cl)c1	0.12	-0.04
Cc1cc(C)c(C2=CSC3=NS(=O)(=O)CCN23)c(C)c1	0.11	0.79
CCOc1ccc(-c2ccc(SCC(=O)Nc3nnc(CC)s3)nn2)cc1	1.31	-0.08
O=C(CNS(=O)(=O)c1cccs1)N1CCN(c2ccccn2)CC1	0.39	-1.2
CC(C)CCNC(=O)c1cc2c(s1)-c1ccccc1S(=O)(=O)C2	0.85	-2.57
COc1ccc(-c2csc(NC(=S)NC(=O)c3ccc4ccccc4c3)n2)cc1OC	4.03	-1.25

An excerpt; rates above refer to the full screens.
